Bioassay records deposited in PubChem BioAssay by National Center for Advancing Translational Sciences (NCATS).
NS1 function inh = qHTS Assay for Inhibitors of Influenza NS1 Protein Function; S. cerevisiae slowed by influenza A NS1, growth recovery by OD600; Potency, µM (top dose mostly 46.1 µM), without a hit: at the top dose activity, positive = more growth; 270,000 tested, 0.4% active; active means well fitted rising curve with a large enough effect; inconclusive means small, poorly fitted or top-dose-only effect; inactive means no such curve, though single readings can be large or run the other way; further: nearly all actives have a fitted effect of over 50% in size
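Recovery from NS1-induced slow growth read by OD600 in budding yeast switched to galactose assay medium (pH 6.0, -URA) at 1:100 dilution. Compound 23 nl per well; the matching strain lacking NS1 serves as control.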
Cruzain noTriton = qHTS Assay for Promiscuous and Specific Inhibitors of Cruzain (without detergent); Cruzipain (Trypanosoma cruzi), P25779; purified cruzain, Z-FR-AMC fluorescence, no detergent; Potency, µM, for inactives: max response, negative = inhibition, hits mostly inhibitors; 200,000 tested, 2.3% active;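 further: plate controls were enzyme without inhibitor for no effect and buffer without enzyme for full effect; nearly all actives have a fitted effect of over 40% in size; top concentration of the series not given in the record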
Target sequence (P25779 123-467 limits assumed): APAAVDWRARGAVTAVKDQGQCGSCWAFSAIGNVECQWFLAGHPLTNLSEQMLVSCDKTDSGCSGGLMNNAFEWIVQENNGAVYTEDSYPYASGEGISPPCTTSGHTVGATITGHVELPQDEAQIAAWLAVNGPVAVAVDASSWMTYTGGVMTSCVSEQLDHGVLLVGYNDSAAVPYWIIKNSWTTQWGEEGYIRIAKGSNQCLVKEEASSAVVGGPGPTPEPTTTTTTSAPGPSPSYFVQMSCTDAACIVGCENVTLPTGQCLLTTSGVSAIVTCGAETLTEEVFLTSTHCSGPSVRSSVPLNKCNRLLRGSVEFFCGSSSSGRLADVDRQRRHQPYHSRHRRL
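Purified cruzain at 1.5 nM, pre-incubated 15 min with compound at room temperature in 100 mM sodium acetate pH 5.5, 5 mM DTT, 0.00005% Triton X-100. Reaction started with 2 uM Z-FR-AMC; AMC fluorescence increase over 60 s gives rate.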
Cruzain Triton = qHTS Assay for Promiscuous and Specific Inhibitors of Cruzain (with detergent); Cruzipain (Trypanosoma cruzi), P25779; purified cruzain, Z-FR-AMC fluorescence, 0.01% Triton; Potency, µM, without a hit: max response, negative = inhibition, hits mostly inhibitors; 200,000 tested, 0.43% active; AID 1478, 2009;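 further: plate controls were neutral wells for no effect and buffer without enzyme for full effect; nearly all actives have a fitted effect of over 40% in size; top concentration of the series not given in the record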
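Purified cruzain (1.5 nM final) was preincubated with compounds for 15 min at room temperature in 100 mM sodium acetate pH 5.5, 5 mM DTT, 0.01% Triton X-100. Reaction started with 2 uM Z-FR-AMC; AMC fluorescence change over 60 s gave activity.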
* hit, by the source's call; ? = inconclusive. Unless noted, the call rests on the fitted dose curve; in most records, active means well fitted curve in the direction sought with a large enough effect; inconclusive means small, poorly fitted or top-dose-only effect, or another doubt; inactive means no such curve, though single readings can be large; an effect the other way counts as inactive or inconclusive. Potency means the concentration at half of the fitted maximal effect. Only part of the results is shown (hit frequency here may not be typical).

SMILES	NS1 function inh	Cruzain noTriton	Cruzain Triton
O=C(O)c1c(Cl)c(Cl)c(Cl)c(Cl)c1C(=O)Nc1ccc2cn[nH]c2c1	-6%	-9%	2.0%
O=S(=O)(O)c1cc(N=[N+]([O-])c2cc(S(=O)(=O)O)c3ccccc3c2)cc2ccccc12	-3%	?	-18%
C[N+](C)(N)CCC[N+](C)(C)N	-2%	2%	4.3%
N#[N+]c1ccc(Nc2ccccc2)cc1	-7%	1%	0.9%
C[C@H](CC(C#N)(c1ccccc1)c1ccccc1)N1CCCCC1	-1%	9%	-1.4%
NC(N)=N[C@H](CC(=O)O)c1ccccc1	-3%	22%	5.5%
CC1(C)N=C(N)N=C(N)N1c1cccc(C(=O)Nc2ccc(S(=O)(=O)F)cc2)c1	0%	3%	-1.7%
Cc1cc(N2CCOCC2)nc2ccc(Cc3ccc4nc(N5CCOCC5)cc(C)c4c3)cc12	13%	-12%	-5.0%
C[C@@]12CC[C@H](O)C[C@@H]1CC[C@@H]1[C@@H]2CC[C@@]2(C)[C@@H](C3=CC(=O)OC3)[C@H](O)C[C@]12O	-8%	5%	-2.1%
CNS(=O)(=O)c1ccccc1C(=N)c1ccccc1	1%	-4%	1.5%
Cn1cnc([N+](=O)[O-])c1SCC(=O)O	1%	6%	3.9%
C[N+](C)(C)CCN(Cc1cccs1)c1ccccn1	-8%	-3%	4.9%

Single records, as listed above. Order of screens: NS1 function inh, Cruzain noTriton, Cruzain Triton
C[C@H](CC(C#N)(c1ccccc1)c1ccccc1)N1CCCCC1 is listed as -1%, 9%, -1.4%
O=C(O)c1c(Cl)c(Cl)c(Cl)c(Cl)c1C(=O)Nc1ccc2cn[nH]c2c1 is listed as -6%, -9%, 2.0%
C[C@@]12CC[C@H](O)C[C@@H]1CC[C@@H]1[C@@H]2CC[C@@]2(C)[C@@H](C3=CC(=O)OC3)[C@H](O)C[C@]12O is listed as -8%, 5%, -2.1%
Cn1cnc([N+](=O)[O-])c1SCC(=O)O is listed as 1%, 6%, 3.9%
O=S(=O)(O)c1cc(N=[N+]([O-])c2cc(S(=O)(=O)O)c3ccccc3c2)cc2ccccc12 is listed as -3%, ?, -18%

(further entries)
SMILES	NS1 function inh	Cruzain noTriton	Cruzain Triton
c1ccc(CCN2CCCCCC2)nc1	0%	-2%	2.6%
O=c1cc(CF)[nH]c(=S)[nH]1	6%	2%	0.3%
C(=Nc1cnc2ccccc2c1)c1ccc2ccccc2n1	-4%	0%	0.4%
O=C(O)/C(=C\c1ccncc1)c1cccc2ccccc12	0%	3%	3.1%
COC(=O)[C@@H]1[C@@H]2C[C@H]3c4[nH]c5ccccc5c4CCN3C[C@@H]2CC[C@@H]1OS(=O)(=O)O	-6%	7%	6.9%
Fc1cccc(Cl)c1/C=N\N=C1c2ccccc2-c2ccccc21	-5%	-10%	4.0%
Cc1ccc(OP(=O)(Oc2ccc(C)cc2)N2C=Cc3ccccc3[C@H]2C#N)cc1	-8%	-9%	-6.3%
NCCNS(=O)(=O)c1ccc(N)cc1	-1%	-7%	0.1%
NCCSC[C@H](N)C(=O)O	-3%	6%	-1.2%
O=C(O)CSc1ccc([N+](=O)[O-])cc1[N+](=O)[O-]	-9%	2%	-0.8%
Nc1ncnc2c1ncn2C[C@@H](O)C(=O)O	2%	9%	4.0%
O=[N+]([O-])c1ccc(CSCc2ccc(Cl)cc2)cc1	-9%	-4%	1.6%
O=C(NCc1cccnc1)[C@@H]1[C@@H](C(=O)O)[C@H]2CC[C@@H]1O2	9%	-8%	1.5%
CC(C)c1ccc(O)c(O)c(=O)c1 (tested in a mixture with another compound)	-65%	-2%	-3.6%
CN(N=O)c1ccc(/C=C\c2ccnc3ccccc23)cc1	-11%	-4%	-6.6%
C[C@@H](Cc1ccc(Cl)cc1Cl)NO	-33%	19%	-0.2%
Nc1nc(N)nc(CC(=O)O)n1	-1%	9%	0.2%
C[C@@H](N)[C@@H](C)Cc1ccccc1	0%	-3%	2.2%
C[C@H](CCC(=O)O)[C@H]1CC[C@@H]2[C@H]3CC[C@H]4C[C@H](O)CC[C@@]4(C)[C@@H]3CC[C@@]21C	-3%	9%	-6.1%
O[C@@H](c1cc(-c2ccccc2)nc2c1ccc1ccccc12)C1CCCCN1 (stereo partly drawn)	-3%	-3%	3.6%
[N-]=[N+]=NC[C@@H]1O[C@@H](n2cnc3c(N)ncnc32)[C@@H]2O[C@@H]21	-3%	11%	4.0%
CC(=O)c1ccc(O)c(CN(C2CCCCC2)C2CCCCC2)c1O	-3%	4%	1.1%
N[C@@H](CSCc1ccc(I)cc1)C(=O)O	-1%	5%	0.4%
Oc1cc(O)c2c(c1)O[C@@H](c1ccc(O)c(O)c1)[C@H](O[C@@]1(c3cc(O)c(O)c(O)c3)Oc3cc(O)cc(O)c3[C@H](O)[C@@H]1O)C2	5%	-9%	-9.1%

Given with two lines to a compound: 4 of the compounds above
Values run as follows: NS1 function inh, Cruzain noTriton, Cruzain Triton
Nc1nc(N)nc(CC(=O)O)n1
    -1%, 9%, 0.2%
C[C@@H](N)[C@@H](C)Cc1ccccc1
    0%, -3%, 2.2%
C[C@H](CCC(=O)O)[C@H]1CC[C@@H]2[C@H]3CC[C@H]4C[C@H](O)CC[C@@]4(C)[C@@H]3CC[C@@]21C
    -3%, 9%, -6.1%
O[C@@H](c1cc(-c2ccccc2)nc2c1ccc1ccccc12)C1CCCCN1 (stereo partly drawn)
    -3%, -3%, 3.6%

Carrying on:
SMILES	NS1 function inh	Cruzain noTriton	Cruzain Triton
O=C(O)[C@@H]1[C@H](C(=O)O)[C@]2(Cl)C(Cl)=C(Cl)[C@@]1(Cl)C2(Cl)Cl	-12%	5%	-0.2%
Cn1c(=O)c2c(nc(C(=N)SCC(=O)O)n2C)n(C)c1=O	7.9µM*	-10%	-15%
Cc1c2cccc(Sc3ccccc3)c2c2c3c(cccc13)[S+](c1ccccc1)C2 (stereo not drawn)	4%	2.5µM*	0.9%
O=C1c2cc([N+](=O)[O-])ccc2-c2ccc3c4ccc5c6c(ccc(c7ccc1c2c73)c64)C(=O)c1cc([N+](=O)[O-])ccc1-5	3%	?	-13%
CCOC(=O)c1c(O)[nH]c(=O)c(CC)c1C	0%	8%	1.9%
C[Si](C)(c1ccc(C(=O)O)cc1)c1ccc(C(=O)O)cc1	5%	-6%	3.6%
CCN(CC(=O)O)C(=O)c1cccnc1	0%	18%	1.5%
C[C@H](Br)C(=O)Nc1ccc(C(=O)O)c(O)c1	-7%	10%	-2.0%
O=C(O)CC[C@@]1(c2ccccc2)NC(=O)NC1=O	-1%	5%	-1.2%
O=C(O)c1ccccc1-c1ccccc1C(=O)Nc1ccc2c(c1)Cc1cc(F)ccc1-2	-3%	-4%	-9.4%
CCCCN(c1ccccc1)c1ncnc2c1cnn2C	-22%	1%	-0.6%
O=C(O)CCc1c2ccc(=O)c(O)c-2oc2c(O)c(O)ccc12	-2%	0%	-18%
[Cl][Pd][Cl].[S-]C1=C2N=CN[C-]2[NH+]=C[N-]1.[S-]c1ncnc2[nH]cnc12	-11%	1%	6.5%
Nc1c(S(=O)(=O)O)cc(S(=O)(=O)O)c2ccc(N=Nc3ccccc3)c(O)c12	-6%	-7%	-0.2%
COc1ccc(-c2cc([C@H](O)C3CCCCN3)c3ccccc3n2)cc1 (stereo partly drawn)	8%	7%	3.2%
Cc1cc(N=Cc2c(CO)cnc(C)c2O)c(N=Cc2c(CO)cnc(C)c2O)cc1C.[Zn]	-3%	?	-12%
CO[C@@H]1/C=C\O[C@]2(C)Oc3c(C)c(O)c4c(O)c(c(CN5CCN(C)CC5)c(O)c4c3C2=O)NC(=O)/C(C)=C\C=C[C@@H](C)[C@@H](O)[C@H](C)[C@@H](O)C(C)[C@H](OC(C)=O)[C@@H]1C (stereo partly drawn)	-19%	?	-14%
NC(N)=NC(N)=Nc1ccc(C(=O)O)cc1	-3%	4%	2.2%
O=S(=O)(O)C(c1ccccc1)[C@@H](O)c1ccccc1 (stereo partly drawn)	3%	5%	-1.0%
C[C@]1(c2ccccc2)O[C@@H]2C[C@@H]3[C@@H]4CCC5=CC(=O)C=C[C@@]5(C)[C@]4(F)[C@H](O)C[C@]3(C)[C@@]2(C(=O)CO)O1	-5%	2%	1.9%
N[C@@H](Cc1cccnn1)C(=O)O	5%	-3%	4.2%
COc1ccc2c(Cc3c4ccccc4cc4ccccc34)cncc2c1O	-41%	-18%	-4.5%
N[C@@H](CSC(=O)c1ccccc1)C(=O)O	-7%	-2%	-3.9%
C[C@@H]1O[C@H](OC2[C@@H](O)[C@H](O)C(O)[C@H](O)[C@H]2O)[C@@H](N)C[C@@H]1N=C(N)C(=O)O (stereo partly drawn)	-3%	1%	-3.0%
O=C(O)c1[nH]c(=O)[nH]c(=O)c1CN1CCCCC1	-4%	-2%	0.7%
Cc1cccc2c1Oc1ccccc1[C@@H]2NC(=O)c1ccc([N+](=O)[O-])cc1	6%	-3%	-0.6%
c1ccc2c([C@@H]3CCN(CCN4CCOCC4)C3)c[nH]c2c1	2%	3%	0.0%
O=C(O)c1cccc(N=Nc2c(S(=O)(=O)O)ccc3c2C(=O)c2ccccc2C3=O)c1O	13%	5%	-14%
N=c1sc2ccccc2n1CCS (tested in a mixture with another compound)	-8%	?	-4.1%
c1ccc2c(c1)-c1nc3ccccc3cc1[C@H]2N1CCOCC1	-19%	-11%	1.0%
COc1cccc2[nH]c(-c3ccccn3)nc12	8%	-18%	-1.4%
Nc1nc(N)c(N=Nc2ccc(C(=O)O)c(O)c2)c(N)n1	-4%	6%	-2.2%
O=C(Oc1ccc2c(c1)CN(Cc1ccccc1)CO2)c1ccccc1	6%	1%	0.8%
O=C1C(Cl)=C(Sc2nnc3c4ccccc4c4ccccc4c3n2)C(=O)c2ccccc21	3%	-20%	-14%
CC1=NN(c2ccc(S(=O)(=O)O)cc2C)C(=[OH+])[C@H]1N=Nc1cc(S(=O)(=O)O)ccc1C(=O)O.O.[Cr]	0%	-7%	-9.2%
C[C@@H](CCC[C@@H]1SC[C@H]2NC(=O)N[C@H]12)C(=O)O	0%	12%	-5.3%
CN(C)Cc1cc(C(C)(C)C)cc(CNC2CCCCC2)c1O	-5%	-7%	-3.2%
COc1ccc([C@H](O)c2ccccn2)cc1	0%	4%	4.0%
Sc1ccc2ccccc2c1CNCc1ccccc1	0%	-16%	2.6%
Cc1ccc(N[C@H](c2ccccc2)c2ccc3cccnc3c2O)cc1	1%	-3%	4.2%
CN1CCN(CC(=O)Nc2cccc3ccccc23)CC1	1%	6%	1.5%
O=C(O)CSc1nnc2c3ccccc3c3ccccc3c2n1	-6%	-6%	-3.2%
O=NN(Cc1ccc(Cl)cc1)[C@@H](C(=O)O)c1ccccc1	-6%	-3%	2.9%
Cc1cc(N)c2cc(OCCOc3ccc4nc(C)cc(N)c4c3)ccc2n1	-43%	-2%	-5.5%
O=C1CC[C@](CCc2nc3ccccc3[nH]2)(c2ccccc2)C(=O)N1	0%	5%	6.2%
Cc1ccc(C(=N)c2ccccc2Cc2cccc3ccccc23)c2ccccc12	-10%	?	1.3%
CC1(C)O[C@H]2[C@@H](c3[nH]nc4c(=O)[nH]c(=O)[nH]c34)OC[C@H]2O1	-6%	11%	2.0%
C[C@H]1CN(CCO)CCN1c1ccccc1	-8%	?	2.3%
Cc1ccccc1CN1C2=NCCN2C(=O)C2=C1CCN(Cc1ccccc1)C2	6%	2%	1.8%
O=P(O)(OP(=O)(O)c1ccccc1)c1ccccc1 (tested in a mixture with another compound)	-4%	-5%	2.2%
CC(C)(N)C(=O)N[C@@H]1C(=O)N2[C@@H]1SC(C)(C)[C@H]2C(=O)O	-6%	9%	1.3%
N[C@@H](Cc1[nH]nc2ccccc12)C(=O)O	6%	8%	3.1%
O=C(O)c1cccc(C[C@H](Br)C(=O)O)c1	-2%	11%	5.3%
c1nc(NCCc2cnc[nH]2)c2[nH]cnc2n1	0%	6%	1.8%
S=c1nc(-c2nc(=S)[nH]c3c2CCCCCCCCCC3)c2c([nH]1)CCCCCCCCCC2	-5%	3%	1.7%
CCOc1ccc2c(ccc(/C=C\c3cc(C)c4cccnc4c3O)[n+]2C)c1	-41%	0%	3.2µM*
CC(C)(C)NC[C@@H](O)c1ccc(O)c(CO)n1	-11%	10%	0.5%
N[C@@](CC(=O)O)(Cc1ccccc1)C(=O)O	4%	-2%	2.3%
Nc1nc(-c2cc(-c3cccc4ccccc34)nc(N)n2)cc(-c2cccc3ccccc23)n1	-1%	6%	0.6%
Nc1c(S(N)(=O)=O)cc(S(N)(=O)=O)cc1S(N)(=O)=O	-6%	5%	0.2%
